# Source: PubChem (several laboratories)
# CSC inhib: blocks cancer stem cells | cancer stem cell-like cells viability, luminescence | inhibition, % at 7.5 µM | 300,000 compounds, 1.1% hits | AID 2717;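 active = mean at 75% or more and at least half the replicates too; inconclusive = mean and replicates disagree; tested in HMLE shEcad cells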;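 also: 0% = median of negative and 100% = median of positive control wells; the first replicate is given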
# MT1-MMP act inh: inhibitors of human MT1-MMP activation | P50281 | HT1080 RFP-PRO-GFP cells, GFP/RFP ratio fluorescence, overnight; percent of plate control window, DMSO zero | GFP/RFP ratio change, % at 20 µM | 360,000 compounds, 0.061% hits | AID 651647;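 active = GFP/RFP ratio change of at least 30% with cell ATP level not reduced by more than half and red fluorescence within 50% of control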; also: strong numbers were not always called active
#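 Assay system: RFP-PRO-GFP reporter HT1080 cells; read-out basis: GFP/RFP fluorescence ratio; benchmarks: DMSO wells and RFP-L50D-GFP cells; doses: 20 µM single dose, 1% DMSO; schedule: overnight cell settling, then overnight compound exposure, 37 °C, 5% CO2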
# eIF4H FP inh: inhibitors of RNA binding by human eIF4H; Q15056; eIF4H fluorescence polarization binding assay; inhibition, % at 35 µM; 290,000 compounds, 0.94% hits; AID 2012;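 active = 50% or more with normal probe brightness, or confirmed in later tests; inconclusive = above 50% with abnormal brightness, or retests that disagree; inactive = below 50% or failed in later tests; about a fifth of its hits are not listed in these tables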;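 also: calls also rest on retests at 20 µM and on dose response follow-up; 0% = protein and probe with vehicle and 100% = probe without protein; strong numbers were not always called active; many hits fall short of the cut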
# Rce1 inh: blocks yeast Ras-converting enzyme; yeast membranes, quenched prenylated peptide cleavage fluorescence; calls only; 290,000 compounds, 0.27% hits;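 active = fall in fluorescence gain of 50% or more versus controls, with final raw signal at or below 3038400; inconclusive = same 50% fall but final raw signal above 3038400; inactive = fall in fluorescence gain under 50%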;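 also: plate controls were neutral control wells for no effect and wells lacking membranes for full effect; tested at 10 µM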
# Target sequence (Q03530 whole entry, looked up): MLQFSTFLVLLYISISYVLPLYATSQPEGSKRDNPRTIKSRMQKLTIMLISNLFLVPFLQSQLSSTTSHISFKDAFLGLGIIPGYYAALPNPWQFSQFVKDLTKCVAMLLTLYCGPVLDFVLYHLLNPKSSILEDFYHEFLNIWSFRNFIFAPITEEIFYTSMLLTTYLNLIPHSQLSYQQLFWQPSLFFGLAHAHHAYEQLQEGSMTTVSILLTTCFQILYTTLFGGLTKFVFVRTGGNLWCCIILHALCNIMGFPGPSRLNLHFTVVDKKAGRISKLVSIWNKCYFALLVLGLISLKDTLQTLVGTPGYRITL
# HIV Env fusion: blocks HIV Env-driven cell-cell fusion; AID 651610; HeLa-JRFL Env/CEM21 cell fusion, luciferase; 360,000 compounds, 1.1% hits; inhibition, % at 12.3 µM;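 active = mean replicate inhibition score of at least 50 and every replicate individually at or above 50; inconclusive = only one of the two criteria met; inactive = mean below 50 and not all replicates reaching 50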;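 also: 0% = plate neutral controls and 100% = maraviroc near 300 nM; one replicate is shown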
# PABP polyA inh: PABP-poly(A) binding inhibition; P11940; PABP-poly(A) RNA binding, fluorescence polarization; inhibition, % at 35 µM; 290,000 compounds, 1% hits;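 active = 50% or more with normal probe brightness, or confirmed in later tests; inconclusive = above 50% with abnormal brightness, or retests that disagree; inactive = below 50% or failed in later tests; about a fifth of its hits are not listed in these tables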;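 also: calls also rest on retests at 20 µM and on dose response follow-up; controls were probe without protein and protein plus probe with vehicle; some compounds called inactive have numbers as strong as hits; many hits fall short of the cut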
# UUG fidelity: yeast start codon fidelity modulation; S. cerevisiae UUG-firefly luciferase reporter, luminescence/redox ratio; activity score, % at 18.7 µM; 350,000 compounds, 0.13% hits;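 active = replicate mean at a twofold rise or more, about +100% in these data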;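 also: firefly luciferase made from a UUG start codon reports start codon fidelity; reporter light over untreated wells divided by growth signal over untreated wells; some hits fall short of that in this replicate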
# eIF4H FP inh retest: recorded beside eIF4H FP inh, whose call it bears; inhibition, %; compound at 20 µM; confirmation average;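 mean of two retest wells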
# PABP polyA inh retest: second read-out of PABP polyA inh, no call of its own (marks repeat the call); inhibition, %; compound at 20 µM; confirmation repeats;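 mean of two retest wells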
# MT1-MMP act inh RFP: recorded beside MT1-MMP act inh, whose call it bears; RFP signal change, %; measured here: RFP expression control read;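 0 = vehicle wells; hits needed this value within 50% of zero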
# Active calls of the source: *; i = inactive; ? = inconclusive; nt = no result given. Random draw from the library; overall some 3% were active at least once.
SMILES,CSC inhib,MT1-MMP act inh,MT1-MMP act inh RFP,eIF4H FP inh,Rce1 inh,HIV Env fusion,PABP polyA inh,UUG fidelity,others
COc1cccc(CN2CCN(c3nc4nonc4nc3NC3CC3)CC2)c1,1,1,3,?,i,-5,?,nt,
CC(=O)Nc1ccc(S(=O)(=O)N2CCN=C2SCc2ccc([N+](=O)[O-])cc2)cc1,-4,10,-27,-9,i,29,4,4,
COCCSc1ccccc1C(=O)NCc1ccco1,13,-1,1,-5,i,7,2,-19,
O=c1c(C/C=C/c2ccccc2)c(O)ccn1Cc1ccc(Cl)cc1Cl,40,0,2,-4,i,4,0,nt,
CC(C)C1N(C(=O)N(C)C)CCN1S(=O)(=O)c1ccccc1 (stereo unspecified),nt,-6,-2,-4,i,0,12,-23,
O=C(O)CNS(=O)(=O)c1cccc2nsnc12,10,4,7,1,i,-13,14,-15,
CCOc1ccc(N(CC(=O)Nc2ccccc2)S(C)(=O)=O)cc1,-4,-6,0,-4,i,nt,42,-16,
COc1ccc(/C=C/C(=O)OCC(=O)Nc2ccc(Cl)cc2F)cc1S(=O)(=O)N1CCOCC1,-2,0,1,-6,i,nt,?,nt,
CC(C)CN(C(=O)CC1OC(=O)c2ccccc21)c1c(N)n(Cc2ccccc2)c(=O)[nH]c1=O (stereo unspecified),-15,5,1,nt,i,-6,nt,nt,
Cc1cc(C)n(C(=O)Cn2nc(C(F)F)cc2C)n1,-14,0,-3,0,i,-71,4,-11,
Cc1cc(C)nc(NS(=O)(=O)c2ccc(NC(=O)c3ccc(S(=O)(=O)N(C)C)cc3)cc2)n1,-9,-2,3,8,i,-2,11,1,
CN1OC[C@@H]2CN(Cc3ccccc3)[C@H](c3ccc(N4CCCCC4)cc3)C[C@@H]21,nt,2,-3,nt,nt,20,nt,-12,
CCOC(=O)c1cn(Cc2ccccc2)nc1-c1ccccc1,-3,4,-1,nt,i,9,nt,nt,
O=C(N/N=C/c1ccc(O)cc1)c1cc(C23CC4CC(CC(C4)C2)C3)[nH]n1,80*,3,4,-4,i,15,0,nt,
COc1ccc(S(=O)(=O)N2CCc3ccccc3C2)cc1OC,-10,1,2,97,i,nt,3,-7,eIF4H FP inh retest=-3;PABP polyA inh retest=8
CCCc1cc(NCC2CCCO2)n2c(nc3ccccc32)c1C#N (stereo unspecified),5,4,-1,-3,i,23,0,-16,
COc1cccc(NC(=S)N(CCN2CCCCC2)Cc2ccco2)c1,-3,3,6,-1,nt,0,2,nt,
O=C1c2ccsc2SCCN1Cc1ccc(Cl)cc1,-2,6,3,-12,i,nt,-9,nt,
N#Cc1ccsc1NC(=O)COc1ccc(-c2nnco2)cc1,17,-8,3,16,i,nt,38,-8,
Cc1c(C#N)sc2nc(-c3ccccc3)nc(N3CCCC3)c12,-6,11,1,0,i,nt,18,-17,
COc1ccc([C@H]2/C=C\CN(S(=O)(=O)c3cccc4cccnc34)[C@@H](C)C(=O)N2Cc2ccc(F)cc2)cc1,-6,-2,-9,nt,i,-7,nt,-19,
O=C(Nn1c(COc2ccccc2)nc2ccccc2c1=O)C(Cl)(Cl)Cl,10,-3,0,1,i,-6,-1,1,
COc1ccc(OC)c(NC(=O)NCCc2cccc(Cl)c2)c1,-8,6,5,0,i,18,0,nt,
Cc1ccc(N=Cc2c(O)n(-c3nccs3)c(=O)c3ccccc23)c(C)c1,2,-67,1,?,i,nt,-10,nt,
CN(C(=O)CSc1ncnc2sc3c(c12)CCCC3)C1CCS(=O)(=O)C1 (stereo unspecified),-20,0,2,nt,nt,i,nt,-20,
# Carrying on.
SMILES,CSC inhib,MT1-MMP act inh,MT1-MMP act inh RFP,eIF4H FP inh,Rce1 inh,HIV Env fusion,PABP polyA inh,UUG fidelity,others
Cc1ccc(C(=O)NCCc2nnc3ccc(NCCCN4CCOCC4)nn23)cc1,-8,2,2,4,i,-4,-6,-26,
COCc1cc(C)nc(OCC(=O)N/N=C/c2cc(C)n(-c3c(C)cccc3C)c2C)c1C#N,-17,-5,-5,2,i,nt,6,-6,
Cc1nc2ccccn2c1-c1csc(Nc2cccc(O)c2)n1,nt,-3,-12,2,i,-257,1,nt,
O=C(NCc1ccccn1)c1ccc(OC2CCN(Cc3ccc(F)cc3F)CC2)cc1,21,-1,-1,-7,i,1,-2,-6,
COc1cc(C(F)(F)F)c(C(=O)N(C)Cc2cccc(Cl)c2)cn1,-3,-2,-3,-4,i,7,2,-5,
Nn1c(SCC(=O)N2CCCCCC2)nnc1-c1ccncc1,-5,6,2,-5,i,nt,4,-12,
COc1cccc(-c2nc(-c3ccncc3)no2)c1,-15,0,-2,-5,i,-34,-4,nt,
CCC(C)NC(=O)NC(=O)CSc1nnc(-c2ccccc2F)n1C1CC1 (stereo unspecified),-12,1,1,7,i,6,15,-5,
CC(CN)(NS(=O)(=O)c1ccccc1)c1ccccc1 (stereo unspecified),-2,-2,4,6,i,21,6,-19,
CSc1ncccc1C(=O)OCCCC(=O)c1ccc(F)cc1,-12,4,-2,nt,nt,4,nt,-11,
O=C(Nc1ccccc1Br)C(=O)N1CCCC1,nt,-1,0,-3,i,-41,0,-12,
COc1ccc(NC(=O)c2nnn(CC(=O)Nc3ccccc3OC)c2N)c(OC)c1,0,0,-1,-1,i,-3,7,-34,
O=C(OC(C(=O)NC1CCCCC1)c1ccc(C(F)(F)F)cc1)c1ccco1 (stereo unspecified),-12,-2,-6,nt,i,3,nt,-3,
O=C(c1ccc(COc2ccc(F)cc2)o1)n1cccn1,-7,0,6,0,i,nt,-11,nt,
CCCCSc1nc(O)c(C2OC(=O)c3c2ccc(OC)c3OC)c(=O)n1C (stereo unspecified),0,0,-3,-3,i,-167,2,nt,
COc1ccc(S(=O)(=O)N=Nc2c(O)[nH]c3ccccc23)cc1,6,2,11,-14,i,-42,-9,nt,
O=C(N/N=C/C(Br)=C/c1ccccc1)c1cnccn1,14,2,-7,-3,i,-25,8,nt,
CN(C)/C=C1\N=C(c2cccnc2Oc2ccc(Cl)cc2)OC1=O,9,-2,-2,-2,i,11,-3,6,
O=C(CN1C(=O)NC(Cc2ccccc2)C1=O)Nc1ccc(OC(F)F)cc1 (stereo unspecified),-7,0,2,nt,i,-3,nt,-16,
CC(C)(C)n1nc2c(c1NC(=O)Cc1cccc3ccccc13)CS(=O)C2 (stereo unspecified),-24,-3,3,21,i,12,18,-8,
COc1cccc(CNC(=O)c2csc3c2CCCC3)c1,-7,4,4,-4,i,-8,-5,5,
CC(C)(CNc1ccc([N+](=O)[O-])cc1C#N)N1CCOCC1,0,3,3,3,i,20,13,-9,
O=C(Nc1ccc(Br)cc1)c1ccccc1CC[N+](=O)[O-],8,5,1,-9,i,nt,-11,4,
Cc1cnc(C(=O)OCc2ccc(Br)cc2)cn1,0,-4,0,7,i,-2,16,-12,
CC1(C(=O)Nc2cnc3ccccc3c2)CCN1Cc1cc2ccccc2o1 (stereo unspecified),nt,-7,1,nt,nt,9,nt,-16,

# Quoted from above (14 entries):
SMILES,CSC inhib,MT1-MMP act inh,MT1-MMP act inh RFP,eIF4H FP inh,Rce1 inh,HIV Env fusion,PABP polyA inh,UUG fidelity,others
Cc1nc2ccccn2c1-c1csc(Nc2cccc(O)c2)n1,nt,-3,-12,2,i,-257,1,nt,
O=C(NCc1ccccn1)c1ccc(OC2CCN(Cc3ccc(F)cc3F)CC2)cc1,21,-1,-1,-7,i,1,-2,-6,
COc1cc(C(F)(F)F)c(C(=O)N(C)Cc2cccc(Cl)c2)cn1,-3,-2,-3,-4,i,7,2,-5,
Nn1c(SCC(=O)N2CCCCCC2)nnc1-c1ccncc1,-5,6,2,-5,i,nt,4,-12,
COc1cccc(-c2nc(-c3ccncc3)no2)c1,-15,0,-2,-5,i,-34,-4,nt,
CCC(C)NC(=O)NC(=O)CSc1nnc(-c2ccccc2F)n1C1CC1 (stereo unspecified),-12,1,1,7,i,6,15,-5,
CC(CN)(NS(=O)(=O)c1ccccc1)c1ccccc1 (stereo unspecified),-2,-2,4,6,i,21,6,-19,
CSc1ncccc1C(=O)OCCCC(=O)c1ccc(F)cc1,-12,4,-2,nt,nt,4,nt,-11,
O=C(Nc1ccccc1Br)C(=O)N1CCCC1,nt,-1,0,-3,i,-41,0,-12,
COc1ccc(NC(=O)c2nnn(CC(=O)Nc3ccccc3OC)c2N)c(OC)c1,0,0,-1,-1,i,-3,7,-34,
O=C(OC(C(=O)NC1CCCCC1)c1ccc(C(F)(F)F)cc1)c1ccco1 (stereo unspecified),-12,-2,-6,nt,i,3,nt,-3,
O=C(c1ccc(COc2ccc(F)cc2)o1)n1cccn1,-7,0,6,0,i,nt,-11,nt,
CCCCSc1nc(O)c(C2OC(=O)c3c2ccc(OC)c3OC)c(=O)n1C (stereo unspecified),0,0,-3,-3,i,-167,2,nt,
COc1ccc(S(=O)(=O)N=Nc2c(O)[nH]c3ccccc23)cc1,6,2,11,-14,i,-42,-9,nt,

# New compounds follow:
SMILES,CSC inhib,MT1-MMP act inh,MT1-MMP act inh RFP,eIF4H FP inh,Rce1 inh,HIV Env fusion,PABP polyA inh,UUG fidelity,others
OCCCNc1nnc(-c2ccccc2)c2ccccc12,-6,2,2,-6,i,0,0,-15,
CCc1ccc(NC(=O)Cn2cnc3c(=O)n(C)c(=O)n(C)c32)cc1,0,-3,0,6,i,5,-5,nt,
CCOC(=O)N1CCN(C(=O)CCCn2c(=S)[nH]c3ccc(Br)cc3c2=O)CC1,11,1,-2,0,i,-36,4,-15,
Cc1ccc(-c2noc(CCCC(=O)NC3CCCC3)n2)cc1,nt,2,-18,-14,i,34,-4,-18,
COc1ccc(S(=O)(=O)NCCSC(C)(C)C)cc1,-1,-7,-3,-2,i,30,12,-11,
CCOC(=O)c1cnc2c(-c3ccccc3OC)c(C)nn2c1C,5,-1,1,4,i,24,-9,nt,
C#Cc1ccc([C@@H]2C=C(C(=O)NCc3ccccc3)O[C@H](OCCCCO)C2)cc1,15,0,-3,nt,i,-6,nt,-5,
C/C(=N\NC(=O)c1nn(C)cc1Br)c1cccc(NC(=O)C2CCCC2)c1,-7,19,13,1,i,nt,0,0,
O=C(COC(=O)C1CCN(S(=O)(=O)c2ccc3c(c2)OCCO3)CC1)Nc1cc(C(F)(F)F)ccc1Cl,2,6,3,4,i,7,-7,nt,
O=S(=O)(c1cccc2nsnc12)N1CCN(C/C=C/c2ccccc2)CC1,-14,1,-2,-8,i,7,-6,-1,
CCCOc1ccc(-c2c(C(=O)N/N=C/c3ccncc3)nnn2-c2nonc2N)cc1,0,1,4,-4,i,9,-1,-8,
Cc1noc(C)c1-c1ccc(C(=O)NC2CCCCC2)c2occc12,nt,7,0,nt,nt,-28,nt,16,
Cc1ccc(C(=O)Nc2cccc3ccccc23)o1,-2,4,5,nt,i,-7,nt,-17,
CC(C)(C)c1ccc(C(=O)NC(=S)N2CCCCCC2)cc1,29,4,2,4,i,-7,3,-22,
COCC1CCCN(Cc2cn(Cc3ccccc3)nc2-c2cc3ccccc3o2)C1 (stereo unspecified),2,-2,0,0,i,58*,-6,4,

# Random excerpt: two records from the list, in no set order.
SMILES,CSC inhib,MT1-MMP act inh,MT1-MMP act inh RFP,eIF4H FP inh,Rce1 inh,HIV Env fusion,PABP polyA inh,UUG fidelity,others
CCOC(=O)c1cnc2c(-c3ccccc3OC)c(C)nn2c1C,5,-1,1,4,i,24,-9,nt,
Nn1c(SCC(=O)N2CCCCCC2)nnc1-c1ccncc1,-5,6,2,-5,i,nt,4,-12,
